Source: PubChem (National Center for Advancing Translational Sciences (NCATS))
SmPrx2 inh – Schistosoma Mansoni Peroxiredoxins (Prx2); S. mansoni Prx2 activity coupled to TGR/GSH (TGR is thioredoxin glutathione reductase), NADPH fluorescence loss, qHTS; some inactives read as strong as hits; Potency, µM; hit rate 0.07% among 65,000; active means full or partial inhibition curve with a strong effect at the top dose; inconclusive means weaker partial or single-point curve; inactive means no accepted curve; further: series up to 57 µM; many of its hits are not listed in these tables
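Coupled assay in which S. mansoni TGR passes NADPH reducing equivalents via glutathione to Prx2, which reduces H2O2. Compounds were preincubated 15 min at room temperature with 25 nM TGR/50 nM Prx2 mix. Kinetic NADPH fluorescence loss (ex 365/em 450 nm) was monitored.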
LT uptake inh – qHTS Assay for Anthrax Lethal Toxin Internalization; Cells, anthrax lethal toxin internalization, FRET ratio (460/530); Potency, µM (top dose mostly 40 µM), for inactives: top-dose activity change, negative = inhibition, actives largely listed as inhibitors; hit rate 0.67% among 70,000; AID 912, 2007; active = well fitted falling ratio curve with the 530 nm signal flat; inconclusive = other ratio curves, or a change in one channel alone; inactive = flat curves in the ratio and both channels; the % refers to the ratio; further: on the % scale 0 is the no-effect control and ±100 the full control effect; nearly all actives have a fitted effect of over 50% in size; tested in ME-180 cells; beta-lactamase reporter
Numbers without * were called inactive; u = inconclusive; x = not tested or not shown; [ ] = remark or other dose. Potency means the concentration at half of the fitted maximal effect. The list is partial. The share of hits here may be higher or lower than overall.

Second line of a record: LT uptake inh, SmPrx2 inh
> COc1ccc(NCc2nnc(SCC(=O)Nc3cc(C(F)(F)F)ccc3Cl)o2)cc1
→ -19%, >57
> COc1ccc2[nH]c(=O)c(CN(CCCN(C)C)C(=O)Nc3ccccc3)cc2c1
→ -21%, >57
> COc1cccc(C(=O)NC2CC3CCCC(C2)N3CC(=O)Nc2ccc(N(C)C)cc2)c1 (configuration not stated)
→ -6%, >57
> COc1cccc(-c2nnc(SCc3cccnc3)o2)c1
→ -3%, >57
> CN(c1ccc(C(=O)NCc2ccco2)cc1)S(C)(=O)=O
→ 11%, >57
> CCOc1cc(S(=O)(=O)NCc2ccccc2)ccc1F
→ 5%, >57
> COc1ccc(CCNC(=O)COC(=O)c2cnccn2)cc1
→ -11%, >57
> C=CCn1c(SCC(=O)C(C)(C)C)nnc1-c1cccs1
→ 13%, >57
> CC1(C)CC(=O)N(c2ccccc2)C1(C)O (configuration not stated)
→ -7%, x
> CCCc1ccc(OCC(O)CN2CCN(c3ccccc3)CC2)cc1 (configuration not stated)
→ u, >57
> COc1cc(NC(=O)C2CCC(CNc3c(N4CCCCC4)c(=O)c3=O)CC2)cc(OC)c1 (configuration not stated)
→ u, >57
> COc1ccc(NC(=O)/C=C\c2ccc(Cl)cc2)cc1
→ u, >57
> CN1CC(=O)N/C1=N\C(=O)Nc1ccc2c(c1)N(C)C(=O)CS2
→ u, >57
> C=CCn1c(C)c(C(C)=O)c(N2CCCC2)nc1=S
→ -5%, >57
> COC(=O)c1cc(NC2c3ccccc3C(=O)N2c2ccc(Cl)cn2)cc(C(=O)OC)c1 (configuration not stated)
→ u, >57
> COC(=O)c1[nH]c(C)c(/C(O)=C2\C(=O)C(=O)N(CCN(C)C)C2c2ccc(C)o2)c1C (configuration not stated)
→ 7%, >57
> Cc1ccc(C(=O)NCCN(C)C)c(C)c1
→ -11%, >57
> CCOc1ccc(C)cc1S(=O)(=O)Nc1cccnc1
→ 10%, >57
> Cc1ccccc1-c1cc(Nc2ccc(F)cc2)ncn1
→ -5%, >57
> CC1=CC(=C(C#N)c2nc3ccccc3s2)C=C(C)N1Cc1ccco1
→ u, >57
> c1ccc(CN(Cc2ccco2)C(c2ccncc2)c2nnnn2C2CCCC2)cc1 (configuration not stated)
→ -2%, >57
> CS(=O)(=O)NCCSCc1ccc(Cl)cc1
→ -13%, x
> COC(=O)CNC(=O)COC(=O)c1cc(Cl)cc(Cl)c1N
→ 11%, >57
> C[C@@]12CCC(=O)C=C1CC[C@H]1[C@@H]2[C@@H](O)C[C@]2(C)[C@@H]1CC[C@@]2(O)C(=O)COC(=O)C1CCCC1
→ -5%[8 µM], >57
> O=C(NCCN1CCN(c2ccccc2F)CC1)C1c2ccccc2C(=O)N2CCc3ccccc3C12 (configuration not stated)
→ u, >57
> CC1CCN(C(=O)CNC(=O)Cn2ccc3ccccc3c2=O)CC1
→ 13%, >57
> CCN(CC)S(=O)(=O)c1cc(C(=O)Nc2ccccc2C(=O)O)ccc1OC
→ 3%, >57
> O=c1cccc2n1CC1CC2CN(Cc2c(Cl)cccc2Cl)C1 (configuration not stated)
→ u, >57
> CCOC(=O)CCSc1nc(C)cc(C(F)(F)F)c1C#N
→ -14%, >57
> COC1(OC)N=C(NC(=O)Nc2ccccc2)C2(C#N)C(c3ccccc3)C12C#N (configuration not stated)
→ -4%, >57
> Cc1ccccc1NC(=O)CSc1nnc(Cc2cccn2C)n1-c1ccc(F)cc1
→ -10%, >57
> Fc1ccc(N2CCN(Cc3ccc4c(c3)OCO4)CC2)cc1
→ -1%, >57
> COC(=O)CC1=C(C(=O)OC)C2(C(=O)Nc3c(C)cccc32)C(C#N)=C(N)O1 (configuration not stated)
→ -15%, >57
> CCN(CC)CCCC(C)n1c(-c2ccccc2)nc2c(N(CCOC)CCOC)nc(C)nc21 (configuration not stated)
→ 1%, x
> Cc1cc(N2CCN(C/C=C/c3ccccc3)CC2)n2ncnc2n1
→ 2%, >57
> CCN1CCN(c2ccc(NC(=O)c3cccnc3)cc2Cl)CC1
→ -3%, >57
> CC(=O)c1cc(-c2ccccc2)n(CC(=O)NCc2cccs2)c1C
→ -3%, >57
> COC(=O)c1cc(Cl)c(NS(=O)(=O)c2ccccc2)cc1OC
→ 1%, >57
> CCOC(=O)N1CCC(Nc2c(OCC)c(=O)c2=O)CC1
→ -7%, >57
> COC(=O)c1ccc(COc2cc(O)c3c(c2)OC(C)(C)CC3=O)cc1
→ -7%, >57
> CCOC(=O)N1CCN(C(=O)c2ccccc2NC(=O)c2ccc(OC)cc2)CC1
→ -4%, >57
> O=C(c1ccc(=O)oc1)N1CCCc2ccccc21
→ u, >57
> CC1CCN(C(=O)COC(=O)c2cc3ccccc3cc2O)CC1
→ -9%, >57
> CC(=O)Nc1ccc(C(=O)CSc2nnc(C)o2)cc1
→ 2%, >57
> Cc1ccc(NCc2nnc(SCC(=O)Nc3ncc(C)s3)n2Cc2ccco2)c(C)c1
→ -3%, >57
> Cc1ccc(C)c(S(=O)(=O)n2cnc3ccccc32)c1
→ u, >57
> Nc1nc(N2CCN(C/C=C/c3ccccc3)CC2)nc2ccccc12
→ -28%, >57
> Cc1ccc(NC2=NC(C(=O)Nc3ccc(C)c(C)c3)CC(=O)N2)cc1 (configuration not stated)
→ -17%, >57
> Cc1cc2c(nc1C)CCCCN2C[C@H](C)O/N=C\[C@@H](C)[C@H](OCc1ccccc1)C(C)C
→ -1%[8 µM], x
> CCc1ccc(C2CC(c3ccc(F)cc3)Nc3nc(N)nn32)cc1 (configuration not stated)
→ 8%, >57
> O=C(CCCc1ccccc1)NCc1cn2ccsc2n1
→ 3%, >57
> CCOC(=O)C1CCN(S(=O)(=O)c2cc(Br)cc3c2N(C(=O)C2CC2)CC3)CC1
→ 4%, >57
> O=C(CSc1nc(-c2ccco2)cc(C(F)(F)F)n1)N1CCN(Cc2ccccc2)CC1
→ u, >57
> COC(=O)C1=C(C)n2nnnc2NC1c1ccc(Cl)cc1 (configuration not stated)
→ -9%, >57
> Cn1c(Cn2c(=O)sc3ccccc32)nnc1SCC(=O)NC1CCCC1
→ -3%, >57
> CC(C)CNC(=O)C1CCN(c2ccc(S(=O)(=O)N3CCOCC3)cc2Cl)CC1
→ 6%, >57
> C=C(C)Cn1c(N(CCO)Cc2ccccc2)nc2c1c(=O)[nH]c(=O)n2C
→ -1%, >57
> O=C(CCc1nc2ccccc2s1)OCC(=O)N1CCN(C(=O)c2ccco2)CC1
→ 4%, >57
> O=C(NCCCN1CCN(Cc2ccccc2Cl)CC1)Nc1ccccc1
→ -14%, >57
> O=C(Nc1c(Cl)cc(Cl)cc1C(=O)NCC1CCCO1)c1ccco1 (configuration not stated)
→ 2%, >57

The list continues.
Second line of a record: LT uptake inh, SmPrx2 inh
> COc1cc(OC)c(C2CC(=O)N3CN(c4ccccc4C)CSC3=C2C#N)cc1OC (configuration not stated)
→ x, >57
> C=CCNc1nc(-c2sc(NC(=O)CC)nc2C)cs1
→ x, >57
> Cc1nc(S(=O)(=O)N(C)c2ccccc2)c(C#N)c(C)c1Cl
→ -24%, >57
> COc1cc2c(cc1OC)C(c1cccnc1)CC(=O)N2 (configuration not stated)
→ -1%, >57
> CCOC(=O)C1CCCN(c2c(Nc3ccc(C)c(C)c3)c(=O)c2=O)C1 (configuration not stated)
→ u, >57
> Cc1cccc(C(=O)Nc2ccccc2C(=O)OCc2c(C)noc2C)c1
→ -1%, >57
> CCc1cc2c(CN3CCN(C)CC3)cc(=O)oc2cc1O
→ u, >57
> COc1cc(OC)cc(C(=O)Nc2ncc3c(n2)CC(C)(C)CC3=O)c1
→ 5%, >57
> COC(=O)COc1cc(C)cc2oc(=O)c(CC(=O)OC)c(C)c12
→ x, >57
> O=C(Cc1c[nH]c2ccccc12)NCc1ccc2c(c1)OCO2
→ 0%, >57
> Cc1cc(C)nc(-n2nc(C)c3c(C(F)F)cc(C)nc32)n1
→ 2%, >57
> CCOC(=O)Cc1csc(NC(=O)C2CCCN(S(=O)(=O)c3cnc[nH]3)C2)n1 (configuration not stated)
→ 10%, >57
> N[C@@H](Cc1ccccc1)c1nnc(SCc2ccccc2F)o1
→ 10%, >57
> O=C(O)CCCC(=O)Nc1ccc(N2CCCC2)cc1
→ -14%, >57
> COc1ccc(OC)c(NS(=O)(=O)c2ccc3c(c2)n(C)c(=O)n3C)c1
→ u, >57
> O=c1[nH]n(-c2ccccn2)c(=O)c2ccccc12
→ 14%, >57
> CN(C)c1ccc(CNCCC2(O)CCOC(C)(C)C2)cc1 (configuration not stated)
→ -5%, >57
> O=C(Nc1cccnc1)c1noc2c1CCCC2
→ 7%, >57
> Cc1cc(NC(=O)c2ocnc2C)no1
→ 8%, >57
> Cc1ccc(S(=O)(=O)N2CCC(C(=O)NCCCN3CCCCCC3)CC2)cc1
→ u, >57
> Cn1c(NCc2ccccc2)cc(=O)n(C)c1=O
→ x, >57
> COc1ccccc1NC(=O)COc1cccc(-n2cnnn2)c1
→ 1%, >57
> Cc1cc(C)c2c(CC(=O)Nc3ccc(Cl)cn3)coc2c1
→ u, >57
> CC1CCC2C(=O)N3C(CCC(C)[C@@H]3c3ccc(Br)cc3)C(=O)N2C1c1ccc(Br)cc1 (some centres not stated)
→ u, x
> COc1ccc(OC)c(NC(=O)NC2(C(F)(F)F)Oc3ccccc3O2)c1
→ 9%, u
> O=C(c1cc2ccccc2o1)N1CCCCCC1
→ -20%, >57
> CCOc1ccccc1NC(=O)N1CCCC(c2nc3c(nnn3Cc3ccc(C)cc3)c(=O)[nH]2)C1 (configuration not stated)
→ -2%, >57
> COCCN(C(=O)Cn1nnc2ccccc21)C(C(=O)NC1CCCC1)c1cc(OC)ccc1OC (configuration not stated)
→ u, >57
> CCOC(=O)c1c(NC(=O)c2ccco2)sc2c1CCCCC2
→ 2%, x
> CN(C)CCCOC(=O)c1cc2ccccc2o1
→ -12%, >57
> COCCn1c(=S)[nH]c2ncccc2c1=O
→ 28%, >57
> CCCCn1nnc(NC(=O)c2ccc(-c3ccccc3)cc2)n1
→ -12%, >57
> c1cc2c(cc1[C@H]1OC[C@H]3[C@@H]1CO[C@H]3c1ccc3c(c1)OCO3)OCO2
→ -25%, >57
> CCOC(=O)C1CCN(c2nc3cc(OC)ccc3cc2C#N)CC1
→ -19%, >57
> COc1cc(OC)c(S(=O)(=O)N2CCCCC2)cc1S(=O)(=O)N1CCCCC1
→ x, >57
> COc1ccc(NC(=O)N2c3ccccc3CC2C)cc1OC (configuration not stated)
→ 4%, >57
> Cc1oc(-c2ccccc2F)nc1CN1CCC(C(=O)NCc2ccco2)CC1
→ -17%, >57
> Nc1nc(SCc2ccccc2Cl)cc(C(=O)O)n1
→ 2%[8 µM], >57
> CCOC(=O)C1CCN(C(=O)c2ccccc2Oc2ccccc2)CC1
→ -3%, >57
> O=C(CSc1ncn[nH]1)OCN1C(=O)c2ccccc2C1=O
→ -4%, >57
> CCn1c(COc2ccccc2C)nnc1SCC(=O)OC
→ 11%, >57
> O=C(C1CCN(S(=O)(=O)Cc2ccccc2)CC1)N1CCCc2ccccc21
→ -8%, >57
> Nc1ncnc2c1ncn2[C@H]1CC[C@@H](CO)O1
→ 1%, x
> O=C1C(c2ccncc2)=C(O)c2ccccc21
→ u, >57
> Cc1onc(-c2ccccc2)c1C(=O)Nc1ccncc1
→ u, >57

Quoted from the listing.
CCOC(=O)C1CCN(C(=O)c2ccccc2Oc2ccccc2)CC1 – LT uptake inh = -3%
CCn1c(COc2ccccc2C)nnc1SCC(=O)OC – LT uptake inh = 11%

Reprinted at random: 6 records from the list, in no set order.
Second line of a record: LT uptake inh, SmPrx2 inh
> Cc1oc(-c2ccccc2F)nc1CN1CCC(C(=O)NCc2ccco2)CC1
→ -17%, >57
> COCCn1c(=S)[nH]c2ncccc2c1=O
→ 28%, >57
> COc1cc(OC)c(S(=O)(=O)N2CCCCC2)cc1S(=O)(=O)N1CCCCC1
→ x, >57
> COc1ccc(NC(=O)N2c3ccccc3CC2C)cc1OC (configuration not stated)
→ 4%, >57
> O=C(C1CCN(S(=O)(=O)Cc2ccccc2)CC1)N1CCCc2ccccc21
→ -8%, >57
> O=C(CSc1ncn[nH]1)OCN1C(=O)c2ccccc2C1=O
→ -4%, >57

Next structures
Second line of a record: LT uptake inh, SmPrx2 inh
> COc1ccc(OC)c(C2CC(=O)N3CN(c4cccc(Cl)c4C)CSC3=C2C#N)c1 (configuration not stated)
→ u, >57
> ClCC[N+]12CC[N+](CCCl)(CC1)C2 (tested in a mixture with another compound)
→ -2%[8 µM], >57
> Cc1ccc(S(=O)(=O)CCc2nnc(NC(=O)c3cnccn3)s2)cc1
→ -2%, >57
> COCCCNC(=O)CS(=O)(=O)Cc1nc(-c2cccc(OC)c2)oc1C
→ -6%, >57
> O=C(C1=COCCO1)N1CCN(C(c2ccccc2)c2ccccc2)CC1
→ -12%, >57
> COc1ccc(C(=O)Nc2ccccc2C(N)=O)cc1
→ 4%, >57
> Cc1c(NC(=O)C(C)N2C(=O)C3C4C=CC(C4)C3C2=O)c(=O)n(-c2ccccc2)n1C (configuration not stated)
→ 3%, >57
> COc1ccc(CNC(=O)c2c(O)c3cccc4c3n(c2=O)CCC4)cc1
→ 5%, >57
> O=C(CSc1nnc(-c2ccccc2)o1)n1c2c(c3ccccc31)CCCC2
→ x, >57
